Mtb H37Rv: Mycobacterium tuberculosis H37Rv growth inhibition, putative kinase inhibitor library, confirmatory dose response (AID 2842); M. tuberculosis H37Rv growth inhibition; higher % means a stronger effect; some inactives read as strong as hits; one-dose inhibition, % at 10 µg/mL; IC90 in µg/mL for titrated hits; 24,000 tested, 5.2% active;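 active = confirmed in a dose series; inconclusive = mostly over 85% at the one dose but not retested; inactive = below 85% or not confirmed; about a fifth of its hits are not listed in these tables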;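 note: bacteria incubated one week before Alamar blue readout; 0% = bacteria only wells and 100% = bacteria with high antibiotic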
Active calls of the source: *; ? = inconclusive. An excerpt; the hit share may differ from the screen's.

SMILES	Mtb H37Rv
Cc1cc(C(=O)CSc2nnc3ccccn23)c(C)n1Cc1ccccc1	-15.1%
COc1cccc(NC(=O)c2sc3nc4c(c(-c5ccc(C)o5)c3c2N)CCCC4)c1	-3.9%
CCOC(=O)c1cnc2ccc(OCC)cc2c1Nc1cccc(C(=O)O)c1	-7.4%
O=C(CSc1ccc2nnc(CCNC(=O)c3ccc(F)cc3)n2n1)NCc1ccccc1Cl	-1.2%
CCOC(=O)c1nn(-c2ccc(C(F)(F)F)cc2)c(=O)c2c(NC(=O)c3ccccc3)scc12	-1.6%
Cc1ccccc1C(=O)N1N=C(c2c(-c3ccccc3)c3cc(Br)ccc3[nH]c2=O)CC1c1ccccc1 (stereo not given)	1.68µg/mL*
CCOC(=O)c1nn(-c2ccc(C)cc2)c(=O)c2c(NC(=O)c3cc(C)cc(C)c3)scc12	-0.7%
O=C1NC(=Nc2ccc(F)cc2)S/C1=C/c1ccc2c(c1)OCO2	7.9%
Cc1cc(NCCc2ccccc2)n2c(nc3ccccc32)c1C#N	-7.6%
O=C(CSc1nc(=O)[nH]c2c1CCCC2)c1ccc(Cl)cc1	3.6%
O=C(CNc1n[nH]c(=O)[nH]c1=O)N/N=C/c1c(F)cccc1Cl	-16.0%
Cn1c(=O)[nH]c(=O)c2c1nc(SCc1ccc(F)cc1)n2Cc1ccccc1	4.8%
O=C(CS(=O)(=O)CCCCN1C(=O)c2ccccc2C1=O)Nc1ccc(F)cc1	-12.9%
CN(c1ncnc2nc[nH]c12)C1CCCCC1	9.2%
Cn1c(=O)c2sccc2n2c(CCCC(=O)NCCc3c[nH]c4ccccc34)nnc12	-9.5%
CC1=CC(=O)C=C(C)C1=NOc1ccc([N+](=O)[O-])cc1	-6.9%
Cc1cc(=O)[nH]c2c(C)cc(S(=O)(=O)NCc3ccccc3)cc12	2.3%
Nc1nc(SCc2cccc3ccccc23)[nH]c(=O)c1NC(=O)c1ccco1	-10.2%
Cc1cc(=O)n2c(Nc3ccccc3)n[nH]c2n1	-0.8%
COc1cc2c3nnc(-c4ccccc4)c-3cn(Cc3ccc(F)cc3)c2cc1OC	71.3%
Cn1c(=O)[nH]c(=O)c2c1nc(SCc1ccccc1Cl)n2CCc1ccccc1	11.8%
O=C(CSc1nnc2ccc(-c3cccc([N+](=O)[O-])c3)nn12)NCc1ccccc1Cl	0.1%
COc1ccccc1-n1c(SCC(=O)Nc2cccc(C)c2C)nc2c(c1=O)SCC2	8.3%
COc1ccccc1CNC(=O)NC1CC(=O)N(c2ccc3c(c2)OCCO3)C1 (stereo not given)	6.3%
O=C(Nc1sc2c(c1-c1nc3ccccc3s1)CCCC2)c1cccs1	5.3%
COc1ccc(Nc2c3c(c(C#N)c4nc5ccccc5n24)CCCC3)cc1	22.9%
O=C(NCCN1CCOCC1)c1sc2ccccc2c1Cl	-9.5%
COc1cc2ccccc2cc1C(=O)Nc1nc(-c2ccc(C)cc2)cs1	-3.1%
Cc1ccc(C(=O)Nc2cc3c4c(c2)CCC(=O)N4CCC3)cc1	32.1%
CCCNc1nc2c(c(=O)n(C)c(=O)n2C)n1Cc1ccc(F)cc1	-1.1%

At a glance, some entries already given:
SMILES	Mtb H37Rv
CC1=CC(=O)C=C(C)C1=NOc1ccc([N+](=O)[O-])cc1	-6.9%
Cc1cc(=O)[nH]c2c(C)cc(S(=O)(=O)NCc3ccccc3)cc12	2.3%
Nc1nc(SCc2cccc3ccccc23)[nH]c(=O)c1NC(=O)c1ccco1	-10.2%
Cc1cc(=O)n2c(Nc3ccccc3)n[nH]c2n1	-0.8%
COc1cc2c3nnc(-c4ccccc4)c-3cn(Cc3ccc(F)cc3)c2cc1OC	71.3%
Cn1c(=O)[nH]c(=O)c2c1nc(SCc1ccccc1Cl)n2CCc1ccccc1	11.8%
O=C(CSc1nnc2ccc(-c3cccc([N+](=O)[O-])c3)nn12)NCc1ccccc1Cl	0.1%

The results go on.
SMILES	Mtb H37Rv
NC(=S)N/N=C/c1cccc([N+](=O)[O-])c1	52.0%
COc1cccc(N2CC(NC(=O)/C=C\c3ccc([N+](=O)[O-])cc3)CC2=O)c1 (stereo not given)	3.3%
Cc1ccc(NC(=O)CN2C(=O)/C(=C\c3cccs3)SC2=S)cc1C	-5.9%
O=C1NC(=Nc2ccc(Cl)cc2)SC1Cc1ccccc1 (stereo not given)	6.2%
O=c1cnnc(Nc2ccc(O)cc2)[nH]1	-19.2%
CCOc1ccc(C(=O)Nc2cc(-c3cn4nc(OC)ccc4n3)ccc2C)cc1OCC	-8.0%
Cn1c(=O)n(CC(N)=O)c(=O)c2c1nc1n2CCCN1c1ccc(Cl)cc1	4.0%
COc1cccc(Cn2cc(C(=O)c3ccc(Cl)cc3)c(=O)c3cc(OC)c(OC)cc32)c1	4.7%
O=C(Nc1nnc(-c2ccc(Cl)cc2)o1)c1ccccc1F	0.72µg/mL*
COc1ccc2nc(Nc3ccc4nc(C)sc4c3)sc2c1	15.2µg/mL*
Cc1csc(SCCn2c(N3CCCCCC3)nc3c2c(=O)[nH]c(=O)n3C)n1	2.5%
COc1cccc(C(=O)Nc2nnc(-c3ccc(Br)cc3)s2)c1	-7.1%
Cc1nnc(SCC(=O)c2ccc(Cl)cc2)n(N)c1=O	-5.3%
Cc1ccc(C)c(-c2nnc(NC(=O)/C=C/c3cccs3)o2)c1	54.5µg/mL*
O=C(Nc1c(C(=O)Nc2ccc([N+](=O)[O-])cc2)oc2ccccc12)c1ccc2c(c1)OCO2	12.8%
Cn1c(=O)c2c(SCC(=O)Nc3ccc4c(c3)OCO4)nc(-c3ccc(F)cc3)nc2n(C)c1=O	-3.7%
C1=C(c2ccccc2)Nc2ncnn2C1c1ccco1 (stereo not given)	25.1%
O=C(CSc1nc2[nH]ncc2c(=O)[nH]1)OCc1ccccc1	-1.1%
N#Cc1ccc(Cl)cc1NS(=O)(=O)c1cc2c3c(c1)CCN3C(=O)CC2	-5.9%
CS(=O)(=O)c1cccc(C(=O)N(Cc2ccccn2)c2nc3c(F)cc(F)cc3s2)c1	-4.9%
NS(=O)(=O)c1ccc2nc(NC(=O)c3ccc(Br)s3)sc2c1	6.3%
COc1ccc(C(=O)Nc2c(N)nc(SCc3cccc(F)c3)[nH]c2=O)cc1OC	-12.7%
COc1ccc(-n2c(=O)[nH]cc(C(=O)Nc3cccc([N+](=O)[O-])c3)c2=O)cc1OC	-8.9%
Nc1nc(SCCO)[nH]c(=O)c1NC(=O)c1ccccc1F	3.2%
Cn1c(=O)c2c(nc3n2CC(c2ccccc2)=NN3Cc2cccc(Cl)c2)n(C)c1=O	-8.0%
CCCNS(=O)(=O)c1ccc2[nH]c(=O)cc(C)c2c1	-12.3%
Cc1cc(=O)oc2cc(OCC(O)Cn3cnc4ccccc43)ccc12 (stereo not given)	29.3%
COc1cc2c(=O)c(S(=O)(=O)c3ccc(F)cc3)cn(Cc3cc(C)ccc3C)c2cc1OC	-7.4%
COc1cccc(-c2nnc(NC(=O)Cc3ccc(SC)cc3)o2)c1	2.7%
Cc1cc(NS(=O)(=O)c2ccc(N3C(=O)c4ccccc4C3=O)cc2)no1	-0.3%
O=c1[nH]c(Nc2ccc3c(c2)OCO3)nnc1-c1ccc(F)cc1	-5.0%
COc1ccc(NS(=O)(=O)c2cc3c4c(c2)CCN4C(=O)CC3)cc1Cl	2.2%
Cn1c(=O)[nH]c(=O)c2c1nc(NC1CCCCC1)n2CCO	-2.4%
O=C(NCc1ccco1)NC1CC(=O)N(c2ccc(F)cc2)C1 (stereo not given)	-0.4%
Cc1cc(C)c2sc(N3CCc4ccccc4C3)nc2c1	18.4%
CC(=O)Cn1c(=O)c2c(nc3n(CC(C)=O)c(-c4ccccc4)cn23)n(C)c1=O	-10.8%
CCCCC1CCC(C(=O)Nc2nnc(-c3cccc([N+](=O)[O-])c3)s2)CC1 (stereo not given)	5.8%
Cc1ccccc1NC(=O)CSc1ccc2nnc(-c3ccc(Cl)cc3)n2n1	-2.3%
COc1ccc(F)cc1CN1CCN(c2cc(C)nc3c(-c4ccccc4)cnn23)CC1	17.0%
CS(=O)(=O)c1ccc(CC(=O)N(Cc2ccccn2)c2nc3ccc([N+](=O)[O-])cc3s2)cc1	9.6%
Cn1c(=O)c2c(SCc3ccccc3F)nc(C3CC3)nc2n(C)c1=O	-6.6%
CCOc1ccc(NC(=O)c2oc3ccccc3c2NC(=O)C(CC)CC)cc1	-0.7%
Cc1cccc(NC(=O)c2ccc(S(=O)(=O)N(C)C)cc2)c1	7.8%
COc1ccc(C(=O)Nc2sc3c(c2C(N)=O)CC(C)CC3)c(OC)c1 (stereo not given)	2.7%
CCOc1ccc(-n2c(SCC(=O)Nc3nnc(CC)s3)nc3c(c2=O)SCC3)cc1	-17.9%
Cc1ccc(NC(=O)c2cnc3sccn3c2=O)cc1C	-3.0%
Cc1ccccc1C(=O)NN1C(=O)/C(=C2/C(=O)N(C)c3ccc(Br)cc32)SC1=S	-5.1%
O=C(Nc1nc(-c2ccc3c(c2)CCCC3)cs1)c1ccc(N2C(=O)CCC2=O)cc1	1.9%
Cc1cn2c3c(=O)[nH]c(=O)n(C)c3nc2n1CCCN1CCC(Cc2ccccc2)CC1	-36.7%
CCOC(=O)c1nn(-c2ccc(Cl)cc2)c(=O)c2c(NC(=O)c3c(-c4ccccc4Cl)noc3C)scc12	8.5%
Cc1ccc(-n2c(=O)cc(N3CC(C)OC(C)C3)[nH]c2=O)cc1 (stereo not given)	-22.2%
CCOC(=O)c1sc(NC(=O)c2cccc(C)c2)cc1C	69.6%
CCCN(CCC)S(=O)(=O)c1ccc(C(=O)Nc2sc3c(c2C(N)=O)CC(C)(C)NC3(C)C)cc1	-0.7%
CC1CN(S(=O)(=O)c2ccc(C(=O)Nc3sc4c(c3C(N)=O)CCN(C)C4)cc2)CC(C)O1 (stereo not given)	-9.1%
CCOC(=O)c1nn(-c2ccc(Cl)cc2)c(=O)c2c(NC(=O)Cc3ccc(OC)c(OC)c3)scc12	-4.7%
Cc1ccc(-c2csc3ncnc(Nc4cccc(C(=O)O)c4)c23)cc1	1.9%
CCc1ccc(Nc2ncnc(N)c2[N+](=O)[O-])cc1	11.1%
Cn1c(SCC(N)=O)ncc(C(=O)Nc2ccc(F)cc2)c1=O	-5.9%
COc1ccc(C(=O)Nc2cc3c4c(c2)C(C)C(=O)N4CCC3)cc1OC (stereo not given)	-6.4%
O=C(CSc1ccc2nnc(-c3cccc(F)c3)n2n1)Nc1nccs1	-1.7%

New compounds follow:
SMILES	Mtb H37Rv
Cc1ccc(-c2csc(NC(=O)c3ccc(S(=O)(=O)N4CC(C)CC(C)C4)cc3)n2)cc1 (stereo not given)	0.8%
O=C(Nc1ccc(I)cc1)c1ccc([N+](=O)[O-])s1	<0.2µg/mL*
COC(=O)CSc1nc(N)c(NC(=O)c2ccc(OC)c(OC)c2)c(=O)[nH]1	-5.5%
COc1ccc(OC)c(-c2nnc(NC(=O)c3ccc(OC(C)C)cc3)s2)c1	-10.9%
CS(=O)(=O)n1cnc2ccccc21	21.1%
COc1ccc2nc(NCc3ccccc3)sc2c1	20.3%
Cn1c(Cn2c(=O)sc3ccccc32)nnc1SCC(N)=O	2.0%
COc1cccc(OCC(=O)Oc2ccc(C(C)=O)cc2)c1	4.8%
O=C(Cc1cccc2ccccc12)Nc1ccc2c(c1)C(=O)NC2=O	?
CCCCCn1c(N2CCC(C(N)=O)CC2)nc2c1c(=O)[nH]c(=O)n2C	24.7%
COc1cc(C2C(C(=O)c3cccs3)=C(O)C(=O)N2Cc2ccco2)cc(OC)c1OC (stereo not given)	-4.4%
Cc1ccc(C)c(-c2nnc(NC(=O)C3=COCCO3)o2)c1	<0.2µg/mL*
O=C(NCc1ccc2[nH]c3c(c2c1)CCCC3)Nc1ccc(Cl)cc1	81.9%
Cc1ccc2nc(NC(=O)CSc3nc(=O)cc(N)n3-c3ccc(C)c(C)c3)sc2c1	16.4%
COc1ccc(Cl)c2sc(NC(=O)c3ccc([N+](=O)[O-])s3)nc12	4.3%
COc1ccc(NC2CC(=O)N(c3ccccc3C(F)(F)F)C2=O)cc1 (stereo not given)	?
C=CCn1c(=NC(=O)CSCC(=O)N2CCN(C(=O)OCC)CC2)sc2cc(Cl)ccc21	-3.6%
CCOC(=O)N1CCc2c(sc(NC(=O)c3ccc(F)cc3)c2C(N)=O)C1	1.89µg/mL*
CCOc1ccc(C(=O)Oc2cc(C)[nH]c(=O)c2[N+](=O)[O-])cc1OCC	-1.6%
c1cncc(CNc2ncnc3c2oc2ccccc23)c1	-5.3%
CCOC(=O)c1nn(-c2ccc(OC)cc2)c(=O)c2c(NC(=O)COC)scc12	-5.5%
Cn1c(=O)[nH]c(=O)c2c1[nH]c(=S)n2CC(=O)c1ccccc1	-5.0%
Oc1c(C(c2cccs2)N2CCN(Cc3ccccc3)CC2)sc2ncnn12 (stereo not given)	10.7%
CC(=O)N1CCN(c2ccc(N3CCCCC3)nn2)CC1	3.0%
O=C(NCCCSc1nc2ccccc2o1)Nc1ncccn1	25.1µg/mL*
CC1CCCN(c2nc3c(c(=O)n(C)c(=O)n3C)n2CCSc2nnnn2-c2ccccc2)C1 (stereo not given)	4.3%
O=C(O)c1cccc(N2C(=O)CC(Nc3ccc(N4CCOCC4)cc3)C2=O)c1 (stereo not given)	-10.8%
CC(C)Oc1ccc(NC(=O)c2cccc(Cl)c2)cc1	13.3%
CCOC(=O)c1nn(-c2ccc(Cl)cc2)c(=O)c2c(NC(=O)c3cccc([N+](=O)[O-])c3C)scc12	-5.9%
COC(=O)c1ccsc1NC(=O)C1COc2ccccc2O1 (stereo not given)	-1.9%
O=C(Nc1nnc(C23CC4CC(CC(C4)C2)C3)s1)C1CC1	8.5%
O=C(Nc1nnc(-c2ccccc2)s1)c1ccccc1[N+](=O)[O-]	-0.4%
Cc1cccc(C(=O)Nc2nnc(-c3cc(C)ccc3C)o2)c1	3.39µg/mL*
COc1ccccc1-c1nnc(NC(=O)Cc2cccs2)s1	12.8%

3 structures already listed, arranged by length of the SMILES, ascending.
SMILES	Mtb H37Rv
COC(=O)c1ccsc1NC(=O)C1COc2ccccc2O1 (stereo not given)	-1.9%
O=C(Nc1nnc(C23CC4CC(CC(C4)C2)C3)s1)C1CC1	8.5%
CCOC(=O)c1nn(-c2ccc(Cl)cc2)c(=O)c2c(NC(=O)c3cccc([N+](=O)[O-])c3C)scc12	-5.9%
